Compound activity from PubChem BioAssay.
KCNQ2 enhance: KCNQ2 (rat) channel potentiation | O88943 | CHO-K1 KCNQ2, FluxOR thallium flux fluorescence; stronger effect = higher value | B-score at 10 µM | hit rate 0.54% among 310,000 | AID 2239;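 active means fluorescence ratio B-score at least 3 SD of library B-scores, with initial fluorescence B-score within 3 SD, cut at about 5.3 in these data; same plate scores as AID 2156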;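 further: B-score of peak minus minimum over baseline fluorescence ratio after K+ and Tl+ stimulus; positive B-score means potentiation of KCNQ2 with more thallium influx and brighter signal; only the inactives scoring about 0 or higher are listed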
Target sequence (O88943 whole entry, looked up): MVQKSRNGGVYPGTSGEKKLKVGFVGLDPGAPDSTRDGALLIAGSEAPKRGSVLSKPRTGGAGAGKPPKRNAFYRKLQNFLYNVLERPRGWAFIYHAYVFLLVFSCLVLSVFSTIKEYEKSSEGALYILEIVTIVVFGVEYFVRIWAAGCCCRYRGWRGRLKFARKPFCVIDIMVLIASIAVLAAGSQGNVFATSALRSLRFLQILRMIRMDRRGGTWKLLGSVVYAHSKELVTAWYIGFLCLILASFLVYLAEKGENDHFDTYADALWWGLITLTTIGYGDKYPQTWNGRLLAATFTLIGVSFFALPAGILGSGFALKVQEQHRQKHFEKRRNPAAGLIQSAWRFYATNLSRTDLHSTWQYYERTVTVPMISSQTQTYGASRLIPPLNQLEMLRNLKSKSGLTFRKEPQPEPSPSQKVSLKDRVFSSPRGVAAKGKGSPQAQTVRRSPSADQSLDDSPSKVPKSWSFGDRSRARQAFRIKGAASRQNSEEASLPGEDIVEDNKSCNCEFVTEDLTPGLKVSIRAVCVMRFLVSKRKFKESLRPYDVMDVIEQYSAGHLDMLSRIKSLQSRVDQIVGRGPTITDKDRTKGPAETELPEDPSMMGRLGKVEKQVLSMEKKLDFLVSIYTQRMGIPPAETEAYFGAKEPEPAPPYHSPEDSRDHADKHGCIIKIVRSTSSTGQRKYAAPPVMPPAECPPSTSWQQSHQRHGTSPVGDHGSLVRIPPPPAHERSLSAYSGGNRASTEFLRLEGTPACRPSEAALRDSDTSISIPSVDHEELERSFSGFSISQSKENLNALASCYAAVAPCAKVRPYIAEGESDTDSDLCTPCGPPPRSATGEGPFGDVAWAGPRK
KCNQ2 enhance baseline: further read-out of KCNQ2 enhance, marked with its call; B-score; compound at 10 µM; measured here: initial fluorescence intensity artifact check;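 brightness before thallium and not channel activity; 0 = typical well and far values either way flag optical interference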
* = called active by the depositor.

SMILES | KCNQ2 enhance | KCNQ2 enhance baseline
Cc1ccc(NC(=O)c2cc(=O)[nH]c3ccccc23)cc1C | 0.55 | 0.04
COC(=O)c1sc(N)c(C(=O)OC)c1CSc1nnnn1C | 0.01 | 1.4
CC1CCN(C(=O)c2ccc(NS(=O)(=O)c3cccs3)cc2)CC1 | 0.4 | 0.54
CC(C)(C)c1nn2cnnc2n(/N=C/c2ccc(O)cc2)c1=O | 2 | 0.44
Cc1cccc(C)c1NC(=O)C1NC(=O)CC1c1ccccc1 (configuration not stated) | 1.7 | 2.1
COCCN(C(=O)CNC(=O)c1ccco1)C(C(=O)NC1CCCCC1)c1cccc(OC)c1 (configuration not stated) | 0.49 | 0.1
CCC(C)(C)NC(=O)C(c1ccc(OC)cc1)N(CCOC)C(=O)CCC(=O)Nc1nccs1 (configuration not stated) | 0.09 | 0.12
Cc1ccc(C(=O)Oc2cccnc2)cc1[N+](=O)[O-] | 6.1* | -1.9*
NC(N)=NS(=O)(=O)c1ccc(NC(=S)NC(=O)/C=C/c2ccccc2)cc1 | 0.14 | 1.4
C=CCn1c(O)c(N=NC(=O)CNC(=O)c2ccncc2)c2ccccc21 | 0.14 | 1.4
C=CCNCCCCOc1c(Cl)cc(C)cc1Br | 0.5 | 0.1
CCCC1=Nc2cc(C(=O)N3CCC(C(N)=O)CC3)ccc2Sc2ccccc21 | 0.19 | -1.6
CC1(C)CC(=O)C=C(NCc2ccncc2)C1 | 0.56 | -0.06
Cc1ccc(NC(=O)C2C3C=CC4(O3)C2C(=O)N(CCCN2CCOCC2)C4C(=O)NC2CCCCC2)cc1Cl (configuration not stated) | 0.66 | -0.15
COc1cc2nc(CN3CCOCC3)n(CC(=O)NCC(F)(F)F)c(=O)c2cc1OC | 0.65 | 0.71

Ordered by number of heavy atoms (rising): some entries from above
SMILES | KCNQ2 enhance | KCNQ2 enhance baseline
CC1(C)CC(=O)C=C(NCc2ccncc2)C1 | 0.56 | -0.06
C=CCNCCCCOc1c(Cl)cc(C)cc1Br | 0.5 | 0.1
Cc1ccc(C(=O)Oc2cccnc2)cc1[N+](=O)[O-] | 6.1* | -1.9*
Cc1ccc(NC(=O)c2cc(=O)[nH]c3ccccc23)cc1C | 0.55 | 0.04
CC(C)(C)c1nn2cnnc2n(/N=C/c2ccc(O)cc2)c1=O | 2 | 0.44
CC1CCN(C(=O)c2ccc(NS(=O)(=O)c3cccs3)cc2)CC1 | 0.4 | 0.54
C=CCn1c(O)c(N=NC(=O)CNC(=O)c2ccncc2)c2ccccc21 | 0.14 | 1.4
CCCC1=Nc2cc(C(=O)N3CCC(C(N)=O)CC3)ccc2Sc2ccccc21 | 0.19 | -1.6
COc1cc2nc(CN3CCOCC3)n(CC(=O)NCC(F)(F)F)c(=O)c2cc1OC | 0.65 | 0.71
CCC(C)(C)NC(=O)C(c1ccc(OC)cc1)N(CCOC)C(=O)CCC(=O)Nc1nccs1 (configuration not stated) | 0.09 | 0.12
Cc1ccc(NC(=O)C2C3C=CC4(O3)C2C(=O)N(CCCN2CCOCC2)C4C(=O)NC2CCCCC2)cc1Cl (configuration not stated) | 0.66 | -0.15

Continuation:
SMILES | KCNQ2 enhance | KCNQ2 enhance baseline
CC1(CC(=O)O)SC(=O)NC1=O (configuration not stated) | 0.02 | -0.7
CS(=O)(=O)N(CC(=O)N1CCN(c2ccccc2F)CC1)c1cc(C(F)(F)F)ccc1Cl | 0.32 | -2.6
COc1ccc(NS(=O)(=O)c2cccc(N/C(=N\S(=O)(=O)c3ccccc3)c3ccc(F)cc3)c2)cc1 | 0.64 | 0.07
COCCNC(=S)N/N=C(\C)c1ccc(C)c([N+](=O)[O-])c1 | 0.3 | 0.07
CCCC(=O)N1CCN(C2=NS(=O)(=O)c3ccccc32)CC1 | 1.7 | 2.5
O=C(NC(=S)Nc1ccc(S(=O)(=O)NC2CCCCC2)cc1)c1cccs1 | 0.35 | 1.2
C/C(Cn1nnc2ccccc21)=N\OC(=O)c1ccccc1C | 1.4 | -0.43
COc1ccc(-c2ocnc2C(=O)Nc2ccc(N3CCOCC3)cc2N2CCOCC2)cc1OC | 0.13 | -1.8
S=c1[nH]nc(-c2cc3ccccc3o2)n1Cc1ccccc1 | 0.97 | 0.28
O=C(Nc1ccccc1N1CCOCC1)c1ccc2c(c1)OCCO2 | 0.32 | 3.1
CC(Sc1nc2ncc(Cl)cc2[nH]1)C(=O)Nc1ccc(C(N)=O)cc1 (configuration not stated) | 1.2 | -0.54
NC(=O)c1ccccc1NC(=O)c1ccoc1 | 0.99 | -0.18
Nc1nnc(SCCOc2ccccc2)s1 | 0.16 | -0.52
CCOC(=O)N1CCN(CC(O)COc2ccc(C(C)C)c(C)c2)CC1 (configuration not stated) | 0.27 | -0.02
CCC(=O)Nc1c2c(nn1-c1ccc(C)cc1)CS(=O)(=O)C2 | 1.2 | -1.2
O=C(O)C1CCCN(CCC=C(c2ccccc2)c2ccccc2)C1 (configuration not stated) | 0.18 | -0.02
O=C(c1ccc(F)cc1)c1c[nH]c(C(=O)NCc2cccnc2)c1 | 0.84 | 0.66
CC(=O)C1=C(C)NC2=C(C(=O)c3ccccc32)C1c1ccccc1 (configuration not stated) | 0.02 | -1.3
CC1CCc2c(sc3ncnc(SC(C)C(=O)NCC4CCCO4)c23)C1 (configuration not stated) | 0.6 | 1.8
CCN(Cc1ccccc1)C(=O)CCCOc1ccccc1 | 0.93 | 1.4
Cc1ccc(-c2n[nH]c(=S)n2/N=C/c2ccc(C)s2)cc1 | 2 | -1.5
O=C1CCCc2c1sc1nc3n(c(=O)c21)CCCCC3 | 1.1 | 0.47
O=C(NCc1ccco1)c1cnccn1 | 0.23 | 0.53
Cc1cc(C)c2nc(NC(=O)c3ccco3)sc2c1 | 0.4 | 0.19
Cn1cccc1Cc1nnc(SCC(=O)N2CCCCCC2)n1CCc1ccccc1 | 0.18 | 0.13
Cc1ccc(Oc2ccc(NC(=O)CSc3n[nH]c(N)n3)cc2)cc1 | 1.4 | -0.56
Cc1c(C(=O)Nc2ccc3oc(-c4cccnc4)nc3c2)oc2ccccc12 | 0.2 | 1.4
CCC1CCCCN1C(=O)c1ccc(OC2CCN(C(=O)C3CC3)CC2)cc1 (configuration not stated) | 0.41 | 0.67
N#Cc1ccccc1OCC(=O)NC(N)=O | 0.62 | -0.41
Cc1ccc(NC(=O)C2CCN(c3ncnc4c3nc3n4CCCCC3)CC2)nc1 | 0.42 | 0.13
O=C(Nc1ccccc1O)c1ccc([N+](=O)[O-])cc1 | 0.86 | -0.71
COc1ccc(C)cc1NC(=O)Nc1cccc(C)c1 | 0.39 | 5.9
C/C(=N/NS(=O)(=O)c1ccccc1)c1ccc(Cl)cc1 | 0.12 | -0.72
CCCCCn1c(NCc2ccco2)nc2ccccc21 | 0.22 | 0.1
CN(Cc1cccs1)C(=O)CCc1ccc(S(=O)(=O)N2CCOCC2)cc1 | 0.48 | -0.43
CCN(CC)C(=O)CSc1nc2ccccc2c(=O)[nH]1 | 0.78 | -0.26
CCC(C)NC(=O)c1cn(CC)c2ccc(S(=O)(=O)N(C)C)cc2c1=O (configuration not stated) | 1.6 | -1.1
COc1ccc(S(=O)(=O)NC2CCCC2)c(Cl)c1Cl | 0.1 | 0.51
O=C(NCCOc1ccc(F)cc1)C1CCC(=O)N(CC2CCCCC2)C1 (configuration not stated) | 1.3 | -1.7
O=C(CS(=O)(=O)c1ccc(Cl)cc1)NCCS(=O)(=O)c1ccc(Cl)cc1 | 1.6 | -0.06
CC12CN3CC(=O)N4CC5(C)CN(CC(C)(C4)C5=O)C(=O)CN(C1)CC(C)(C3)C2=O | 0.56 | 0.01
COC(=O)c1cc(NC(=S)NC(=O)c2ccccc2)ccc1N1CCOCC1 | 2 | 1.1
COC(=O)C1=C(C)NC(=O)CC1c1cccc(Cl)c1Cl (configuration not stated) | 0.99 | 0.13
CN(Cc1ccccc1)S(=O)(=O)c1ccc(OCC(=O)N2CCOCC2)cc1 | 0.35 | -1.1
Cc1cc(S(=O)(=O)NC2CCCCC2)ccc1OCC(=O)N1CCOCC1 | 0.53 | -0.16
N#Cc1cc2c(nc1Cl)CCCC2 | 0.03 | 3.4
COc1ccccc1CNC(=O)c1ccc(Cl)c(NC2=NC3CS(=O)(=O)CC3S2)c1 (configuration not stated) | 0.82 | 0.26
COc1ccc(C(=O)Nc2cccc(C)c2)cc1S(=O)(=O)N1CCOCC1 | 0.04 | -2.4
Cc1cc(C)c(S(=O)(=O)N2CCCC(C(=O)NCc3ccccn3)C2)c(C)c1 (configuration not stated) | 0.64 | 1.6
CCN(CC(=O)NCc1cccs1)C(=O)C1CC(=O)N(c2ccc(OC)cc2OC)C1 (configuration not stated) | 1.6 | 1.6
Cc1cc(C)c(NC(=O)CSc2nc3[nH]ncc3c(=O)[nH]2)c(C)c1 | 0.03 | -0.96
Cc1ccc(-c2nnc(Nc3ccc(C(=O)N(C)C)cc3)c3ccccc23)cc1S(N)(=O)=O | 2.1 | -1.1
Cc1cc([N+](=O)[O-])ccc1NCc1ccc2c(c1)OCCO2 | 0.84 | 0.04
CCOc1ccc(OCc2nnc(SCC(=O)NC3CCS(=O)(=O)C3)n2-c2ccc(Cl)cc2)cc1 (configuration not stated) | 1.2 | 0.67
COCC(C)NS(=O)(=O)c1ccccc1 (configuration not stated) | 1.6 | -0.35
O=C(CCSCc1ccccc1F)NCCc1ccccc1 | 0.5 | 0.98
Cc1ccc(NC(=O)CSCC(=O)Nc2ccc(S(=O)(=O)N3CCOCC3)cc2)cc1 | 0.42 | -0.4
N#Cc1c(N)n(CCOC(=O)c2cccc([N+](=O)[O-])c2)c2nc3ccccc3nc12 | 1.1 | -2
CCOc1ccc(C(=O)NC2CCN(S(=O)(=O)CC)CC2)cc1 | 0.61 | -1.5
Cc1cccc(S(=O)(=O)N/N=c2\sc3ccccc3n2C)c1 | 0.01 | 3.1
Following part:
SMILES | KCNQ2 enhance | KCNQ2 enhance baseline
CCN1CCc2c(sc(NC(=O)c3ccc(C(=O)c4ccccc4)cc3)c2C(N)=O)C1 | 0.02 | 0.71
Cc1cccc(NC(=O)COC(=O)c2ccc3c(c2)OCO3)c1C | 0.26 | 0.53
COc1ccc(NS(=O)(=O)c2ccc(NC(=S)NCC3CCCO3)cc2)cc1 (configuration not stated) | 1.5 | -0.02
CCCCP(=O)(CCCC)Cc1ccccc1 | 0.53 | 0.06
Cc1cccc(N=Cc2cc(Br)cc(Cl)c2O)c1 | 9.3* | 2.2*
COc1ccccc1N1CCN(C(=S)Nc2ccccc2)CC1 | 1.2 | -2.7
CCCCc1nc2cc(C(=O)NCCc3c(C)n[nH]c3C)ccc2o1 | 2.8 | 0.49
COc1ccc(OC)c(NC(=O)c2ccc(OC3CSC3)cc2)c1 | 1.5 | 0.67
O=c1c2cn(Cc3ccccc3)c3ccccc3c-2nn1Cc1ccc(F)cc1Cl | 0.38 | 1.6
Cc1onc(-c2ccccc2)c1C(=O)Nc1ccc(S(=O)(=O)NC(C)(C)C)cc1 | 0.72 | -0.03
O=C(Cc1c[nH]c2ccccc12)Nc1cccc(S(=O)(=O)N2CCCCC2)c1 | 0.03 | 0.22
O=C(CN(C(=O)c1csnn1)c1ccc(Cl)cc1)NC1CCCC1 | 0.59 | -0.41
C=CCN1C(=O)C(O)(CC(=O)c2ccccc2)c2ccccc21 (configuration not stated) | 1.1 | 0.55
CC(C)(C)NC(=O)C(c1ccco1)N(C(=O)c1csnn1)c1ccccc1 (configuration not stated) | 1.1 | -1.3
CSc1nc(N)c2c(n1)OC(N)=C(C#N)C2c1cccnc1 (configuration not stated) | 0.5 | 1.2

Reprinted from the part before: 2 compounds, followed by the next part.
SMILES | KCNQ2 enhance | KCNQ2 enhance baseline
CC(C)(C)NC(=O)C(c1ccco1)N(C(=O)c1csnn1)c1ccccc1 (configuration not stated) | 1.1 | -1.3
CSc1nc(N)c2c(n1)OC(N)=C(C#N)C2c1cccnc1 (configuration not stated) | 0.5 | 1.2
CC(C)(C)c1ccc(S(=O)(=O)NCC(=O)Nc2sc3c(c2C(N)=O)CCCC3)cc1 | 0.15 | 1.3
COC(=O)NNC(=O)c1ccc(C)cc1 | 0.72 | 0.35
O=C(Nc1ccccc1)c1ccc(Cn2cc(C(F)(F)F)ccc2=O)cc1 | 1.2 | 0.53
O=C(NNC1=C(C(=O)C(F)(F)F)CCC1)c1ccncc1 | 17* | -1.6*
CCC(NC(=O)C1CCC1)c1ccc(C)cc1 (configuration not stated) | 0.17 | -0.38
Cc1ccc(NC(=S)NCC2CCN(C(C)c3ccccc3)C2)cc1C (configuration not stated) | 0.69 | 2.1
Cc1nnc(SCc2nnc(-c3ccccc3Br)o2)n1-c1ccccc1 | 0.21 | -0.33
Cn1nc(C(F)(F)F)c(C(=O)Nc2ccc(F)cc2F)c1Sc1ccc(C(F)(F)F)cc1 | 0.02 | -2
Cc1c(O)ccc(C(=O)CN2CCN(c3ccccc3)CC2)c1O | 1.5 | -0.59
CN1CCN(CCNC(=O)Nc2ccc([N+](=O)[O-])cc2)CC1 | 0.08 | 0.97
COc1ccc(C(=O)N=c2sc3ccccc3n2C)cc1 | 0.1 | -2.1
CCOc1ccc(NC(=O)C2CCCN(S(=O)(=O)c3ccc4c(c3)CC(C)N4C(C)=O)C2)cc1 (configuration not stated) | 0.07 | -0.69
Cc1ccc2[nH]c3c(c2c1)CN(C(=O)CN1CCN(c2ccccn2)CC1)CC3 | 0.04 | 2.8
Cc1ccc(S(=O)(=O)NCCC(=O)Nc2ccc(S(=O)(=O)NC(C)C)cc2)cc1 | 1.1 | -0.15
C#CCOCCOCCOCCNc1nc(N2CCN(C(=O)[C@H]([C@@H](C)CC)n3cc([C@@H](N)Cc4ccc(O)cc4)nn3)CC2)nc(N2CCN(C(=O)[C@H](CCCCN)n3cc([C@@H](N)CC(C)C)nn3)CC2)n1 | 0.02 | -0.01
CCC(=O)N1CCN(c2ccnc3cc(Cl)ccc23)CC1 | 2.1 | 0.36
O=C(CSc1nnc(Cc2ccccc2)o1)NCCc1ccccc1 | 0.09 | -0.1

The list is partial, so the mix of outcomes need not match the whole.
